From PubChem BioAssay
Ab BasE inh – BasE siderophore enzyme inhibitors, primary screen, biochemical, Acinetobacter baumannii ATCC 17978, fluorescence polarization; purified BasE, fluorescence polarization binding displacement; inhibition, % (test concentration not listed); 84,000 compounds, 0.1% hits; AID 485350, 2010;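 active means both replicates above 25% with normal brightness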;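 further: 0% = negative plate control signal and 100% = positive plate control signal; stock transfer was 100 nL into about 30 µL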
KSHV LANA nucl – inhibitors of KSHV LANA-nucleosome binding, primary screen, biochemical, fluorescence polarization, FITC-LANA1-23, chicken nucleosomes | FITC-LANA1-23 / chicken nucleosome fluorescence polarization; active compounds read low | z-score (no concentration beside the values) | 51,000 compounds, 0.3% hits | AID 720717, 2013;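 active means both repeat wells score below -2 in polarization z-score versus plate sample wells, excluding overly bright wells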;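 further: 100 nL library stock added to about 30 µL; numbers are from one replicate; some results filed as inactive read as strong as hits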
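test system = FITC-LANA peptide and chicken nucleosomes | amount = 240 nM purified chicken nucleosomes (480 nM peptide binding sites), final | reagent = 50 nM FITC-LANA1-23 probe | medium = TEN-BT buffer, pH 7.5 | doses = single compound addition by pin transfer, 100 nL per well | timing = 10–45 min, room temperature | detection = fluorescence polarization | repeats = duplicate plates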
* hit, by the source's call; x = no result given. A portion of the library. The share of hits here may be higher or lower than overall.

No.	SMILES	Ab BasE inh	KSHV LANA nucl
1	C/C(=N\O)c1sc(-c2ccc(Cl)cc2)nc1C	x	-0.21
2	COc1ccc(NC(=O)CCCn2nnc3ccccc3c2=O)cc1	4.3	1.8
3	Nc1nc2ccccc2n1CCN1CCCCC1	1.8	x
4	CCOC(=O)C(C)Sc1nc(-c2ccc(OC)cc2)c(C#N)c(=O)[nH]1 (configuration not stated)	5.5	0.071
5	O=C(Cc1ccccc1)Nc1cccc(Cl)c1	1.9	1.5
6	O=S1(=O)CCC(N=Cc2cn(-c3ccccc3)nc2-c2ccccc2)C1 (configuration not stated)	1.2	x
7	CCOC(=O)CSc1nc2c(c(C3CC=CCC3)c1C#N)CCC2 (configuration not stated)	-1.6	0.23
8	CN(C)c1nc(N(C)C)nc(N2CC(=O)N(N)C2=N)n1	1.1	1.2
9	Cn1c(CCC(=O)Nc2ccc(N3CCOCC3)cc2)nc(=O)c2ccccc21	2.8	x
10	c1ccc(Cn2c(CN3CCOCC3)nc3ccccc32)cc1	0.2	-0.31
11	O=C(O)c1cc2ccc(Br)cc2o1	x	-0.86
12	CCC(=O)Nc1cccc(NC(=O)c2cccs2)c1	-0.2	-0.072
13	CNCc1sccc1C	0.9	-0.25
14	c1coc(C2Nc3c(ccc4ccccc34)C3OCCC23)c1 (configuration not stated)	-0.2	x
15	CCOC(=O)c1oc2ccccc2c1COC(=O)C1COc2ccccc2O1 (configuration not stated)	0.1	x
16	COc1ccc(NC(=O)COc2ccc(C)c(C)c2)cn1	3.8	x
17	CCc1ccc(C(=O)Nc2ccc(N(CC)CC)cc2C)cc1	2.7	-0.13
18	Cc1cc(C(=O)OCC(=O)C(C)(C)C)c2ccccc2n1	3.1	x
19	CCCn1c(NC(=O)CCNC(C)=O)nc2ccccc21	2.0	x
20	c1ccc2c(c1)CC1(CCCCC1)n1nnnc1-2	-0.6	-0.63
21	CC(NC(=O)c1cn(-c2ccc(F)cc2)nn1)c1cccs1 (configuration not stated)	0.1	1.3
22	Cc1nc(C)c(C(=O)NCCC(c2ccccc2)c2ccccc2)o1	1.5	0.68
23	CC(C)Cn1c(SCC(=O)Nc2ccccc2)nc2ccccc21	13	x
24	CCSc1nc2ccccc2n1C(=O)CCC(=O)O	0.5	x
25	O=C(COc1ccc(Cl)cc1)Nc1ccc(Cn2ccnc2)cc1	0.0	0.16
26	Cc1cccc(N(C)c2nc3ccccc3n3c(C)nnc23)c1	0.6	0.039
27	CCCn1nnc(NC(=S)NC(=O)c2cccs2)n1	2.0	-1.3
28	CC(=O)Nc1ccc(NC(=O)C(C)OC(=O)c2n[nH]c(=O)c3ccccc23)cc1 (configuration not stated)	-2.4	x
29	C=CCn1c(CNC(=O)c2ccco2)nnc1SCc1nc2ccccc2c(=O)[nH]1	0.9	-0.28
30	O=C(COc1ccc(-c2nnco2)cc1)c1ccc[nH]1	0.3	x
31	Cc1nnc(-c2ccccc2)[nH]c1=O	x	0.14
32	CCOc1ccc2c(c1)sc(=NC(=O)CN1C(=O)CCC1=O)n2C	2.6	0.057
33	O=C(NCCSCc1ccco1)c1ccc2c(c1)S(=O)(=O)c1ccccc1C2=O	0.1	x
34	Nc1ccccc1SCc1ccccc1	0.5	x
35	CN(C)C(=O)COc1ncnc2ccc(Br)cc12	0.4	x
36	c1cc(-c2nc3cc(Cc4ccc5oc(-c6ccncc6)nc5c4)ccc3o2)ccn1	1.5	0.0065
37	CCN(CC)c1ccc(CN2CCc3ccccc3C2)cc1	-1.8	0.042
38	COC(=O)c1noc(C(=O)OC)c1OCC(=O)c1cc(C)n(Cc2ccccc2Cl)c1C	-0.9	x
39	O=C(Nc1cccc(Cl)c1)N1CCC(n2nnc3cc(F)ccc32)CC1	0.0	0.29
40	COC(=O)c1sc(N)c(C(=O)OC)c1C	4.7	0.98
41	O=C(CSCCOc1ccccc1)N1CCCC1	4.9	0.24
42	N/C(CSc1nc(SC/C(N)=N\O)ns1)=N\O	-1.6	0.91
43	CNC(=S)N(C)CC(=O)Nc1c(Cl)cccc1Cl	1.1	x
44	COc1ccc(NC(=O)C2C3NC(=S)NC2(C)Oc2ccccc23)cc1 (configuration not stated)	-1.6	0.061
45	COc1cc2c(cc1OC)C1=C(C#N)CN(C3CCCCC3)CN1CC2	2.0	-0.16
46	NC(=O)C[n+]1ccc(/C=N/O)cc1	2.4	-0.51
47	COCCN(C(=O)c1cc2ccccc2o1)C1(C(=O)Nc2ccccc2)CCN(C(C)C)CC1	-1.8	x
48	N#Cc1ccccc1CS(=O)(=O)N1CCN(S(=O)(=O)/C=C/c2ccccc2)CC1	1.2	x
49	CCNC(=S)N1CCN(Cc2ccccc2)CC1	0.5	-1.7
50	Cc1nc(SCC(=O)Nc2ccc(S(=O)(=O)N3CCOCC3)cc2)n(C2CCCCC2)c1C	4.3	x
51	CC(C)=C=CCC(C)O (configuration not stated)	1.0	-0.91
52	Cc1ccccc1OCC(O)CN(Cc1ccccc1O)C1CCCCC1 (configuration not stated)	3.4	x
53	O=C(NCc1ccccn1)C1C2C=CC(C2)C1C(=O)Nc1ccc(F)cc1 (configuration not stated)	1.0	-0.43
54	CCN(CC)c1nccs1	-0.2	x
55	CCCCN=C1SCC(c2cc3ccccc3o2)=NN1C	2.5	x
56	O=C1CC(c2ccccc2)C(=O)N1 (configuration not stated)	-0.5	x
57	CCOC(=O)c1c(NC(=O)CSc2nncs2)sc2c1CCC2	-1.4	x
58	O=c1c2cc(-c3ccccc3)sc2ncn1Cc1ccccc1Cl	x	0.5
59	CCOC(=O)c1sc(N(Cc2ccccc2)C(=O)CSc2n[nH]c(N)n2)nc1C	-1.2	x
60	COc1ccc(OC)c(CCNC(=O)NCc2noc3ccc(C)cc23)c1	-0.5	0.04

New compounds follow.
No.	SMILES	Ab BasE inh	KSHV LANA nucl
61	COc1ccc(OC)c(CNc2nc3ccccc3c3nnc(C)n23)c1	-3.5	x
62	CCOC(=O)Cn1nnc(-c2ccccc2)n1	-3.1	-0.47
63	CCCNCc1ccccc1	4.0	0.62
64	O=C(O)/C=C/c1cc(F)cc2c1OCOC2	1.2	x
65	COc1ccc(COC(=O)N/C=C/c2ccco2)cc1	x	0.22
66	Cc1ccc(NC(=O)Nc2ccc(-c3cc(Cl)ccc3Cl)o2)cc1	0.2	x
67	CCOc1cccc(Nc2ccc(-c3ccc(OC)cc3)nn2)c1	9.7	0.38
68	CCN1CCC2(CC1)Oc1ccccc1C1CC(c3ccccc3)=NN12 (configuration not stated)	-3.8	-0.27
69	Cc1[nH]c(SCC(=O)Nc2cccc(C#N)c2)nc1Cc1ccccc1	0.6	x
70	Cc1cc(C=C(C#N)C#N)c(C)n1-c1ccc(S(N)(=O)=O)cc1	0.2	-0.58
71	C/C(CC(C)(C)C1CCCCC1)=N\O	-0.4	x
72	O=C(c1ccccc1)N1CCN(Cc2ccccc2)CC1	-0.7	0.11
73	CNC(=S)c1nc2ccccc2[nH]1	3.0	0.33
74	O=C(C1CCCO1)N(Cc1ccccc1)c1ccccc1 (configuration not stated)	-0.4	0.49
75	CCOc1nc2cnccc2n(CCN2CCOCC2)c1=O	1.8	-0.64
76	NC(=O)CN1CCN(c2cccc(C(F)(F)F)c2)CC1	-0.7	0.88
77	N#Cc1cccc(NC(=O)COC(=O)Cn2nc(-c3ccccc3)oc2=O)c1	1.5	x
78	COCCCn1cnc2oc3nc4ccccc4nc3c2c1=O	-3.6	x
79	O=C(c1ccc(Cl)cc1)n1cc2c(n1)-c1cc(Cl)ccc1SC2	-2.5	x
80	CCOC(=O)c1nn(-c2ccc(C(F)(F)F)cc2)cc(Sc2nnc(C(F)(F)F)n2C)c1=O	0.2	x
81	CSc1nc(-c2ccccc2)c2cc(Cl)ccc2n1	1.5	x
82	Cc1nnc(SCC(=O)N(C)Cc2ccccc2)n1Cc1ccccc1	-1.6	x
83	CC(C)Sc1nc2[nH]ncc2c(=O)[nH]1	0.0	-0.57
84	CCOC(=O)Cc1n[nH]c(=S)n1C1CCCC1	-1.9	x
85	O=C(CSc1nnnn1C1CC1)N1c2ccccc2SCC1c1ccccc1 (configuration not stated)	2.4	x
86	O=C(Nc1sccc1C(=O)NC1CCCC1)c1ccc(Br)s1	-7.7	0.33
87	Cc1cc(C)n2ncc(C(=O)Nc3ccc(C)c(C)c3)c2n1	-3.7	2.1
88	CCCCn1c(N)c(N(C)C(=O)CSc2nnc(-c3ccc(F)cc3)o2)c(=O)[nH]c1=O	0.6	x
89	CCC(OC(=O)C1=Cc2ccccc2OC1)C(=O)NC1CCCC1 (configuration not stated)	0.3	-0.87
90	Cc1ccc(-c2nn3c(C)nnc3c3ccccc23)cc1S(=O)(=O)N1CCCC1	-0.1	0.033
91	O=S(=O)(Nc1nc2ccccc2nc1N1CCCC1)c1ccccc1	-2.2	x
92	COc1cc2c(cc1OC)C1C(C(=O)NCC3COc4ccccc4O3)c3ccccc3C(=O)N1CC2 (configuration not stated)	-0.1	0.38
93	CC1=CC(C)=NC2=C(c3ccccc3)S/C(=C3/C(=O)N(C)C(=S)N3C)N12	-0.8	2.7
94	O=c1c2ccccc2nc2n1-c1ccccc1CCC2	-0.2	-0.89
95	CC(C)(C)C(C)(C#N)Nc1ccc(Cl)cc1 (configuration not stated)	-0.1	0.31
96	O=C(CN1C(=O)C2CC=CCC2C1=O)OCc1cc(=O)n2cc(Br)ccc2n1 (configuration not stated)	-1.2	x
97	CCCOC(=O)CSc1nc(N)c(C#N)c(-c2ccc(C)cc2)c1C#N	0.5	x
98	CCn1cc(S(=O)(=O)CC(=O)Nc2ccc(C)cc2)c2ccccc21	0.1	0.41
99	Cc1ccc(C)c(OCCSc2ncccn2)c1	0.1	x
100	O=C1NC2=C(C(=O)OC2)C(c2ccc(O)cc2)N1 (configuration not stated)	-0.2	x
101	O=C(Cn1cnc(S(=O)(=O)N2CCCCC2)c1)NCCc1ccccc1	-0.4	0.51
102	C/C=C/c1ccc(OCC(O)CN(C)C2CCCCC2)c(OC)c1 (configuration not stated)	2.5	x
103	CCCCN1C(=O)C2(/C(=C(/O)c3ccc(C)c(F)c3)C(=O)C(=O)N2CCN(C)C)c2ccccc21 (configuration not stated)	0.9	0.87
104	N#CCC(=O)N=Cc1ccc(Cl)cc1Cl	1.4	x
105	FC(F)(F)c1cnc(-n2nc(Br)nc2Br)c(Cl)c1	x	0.0055
106	O=c1cc(CO)oc(CN2CCC(Cc3ccccc3)CC2)c1O	-0.7	x
107	CC(C)c1nc2ccccc2n1CC(=O)N1N=C(c2ccc(Cl)cc2)CC1c1ccco1 (configuration not stated)	-3.3	x
108	COC(=O)c1ccc(CSc2ncccn2)o1	-0.1	1.4
109	Cc1sc2ncnc(Nc3ccc(CN4CCOCC4)cc3)c2c1C	8.0	x
110	CCCCC1CCC(c2ccc(C(=O)O)cc2)CC1 (configuration not stated)	1.9	x
111	COc1cccc(CCNC(=O)C2CCCN(c3ncnc4c3nc3n4CCCCC3)C2)c1OC (configuration not stated)	0.6	0.7
112	CCc1ccccc1NC(=O)Nc1cnccn1	-0.4	-1.1
113	O=C(Nc1cccc(-c2nnc(-c3ccccc3)o2)c1)C1CC1	1.3	-0.2
114	Cc1c(Cc2ccccc2)c(=O)oc2cc(OC(C)C)ccc12	4.0	x
115	COC(=O)CSc1nnc(COc2ccc(C(C)C)cc2)o1	-3.0	-0.7
116	Cc1ccc(N(C)C(=O)Cn2c(=O)oc3cc(S(=O)(=O)N4CC(C)CC(C)C4)ccc32)cc1 (configuration not stated)	-1.4	-1.3
117	CCOC(=O)C1CCN(Cn2nc(Nc3ccc(CC)cc3)sc2=S)CC1	1.7	x
118	COc1ccc(C2=C/C(=C/c3ccco3)C(=O)O2)cc1	0.8	-0.29
119	COc1ccc(-c2[nH]ncc2CN2CCC(c3ccccc3OC)CC2)cc1	-1.5	x
120	COc1cc(-c2c(C#N)c(N)nc3[nH]c(=S)[nH]c(=O)c23)ccc1O	0.6	0.95
121	O=C(CSc1cccc[n+]1[O-])NC(=O)C1COc2ccccc2O1 (configuration not stated)	0.2	x
122	CC1=C(C(=O)OC(C)C)C23C(=O)c4ccccc4C2(O1)OC(N)=C3C#N (configuration not stated)	2.0	x

Along the list, quoted from above.
Entries 70–79 in Ab BasE inh, in turn: 0.2, -0.4, -0.7, 3.0, -0.4, 1.8, -0.7, 1.5, -3.6, -2.5

Structures listed so far with a CF3 group, in the order listed:
No.	SMILES	Ab BasE inh	KSHV LANA nucl
76	NC(=O)CN1CCN(c2cccc(C(F)(F)F)c2)CC1	-0.7	0.88
80	CCOC(=O)c1nn(-c2ccc(C(F)(F)F)cc2)cc(Sc2nnc(C(F)(F)F)n2C)c1=O	0.2	x
105	FC(F)(F)c1cnc(-n2nc(Br)nc2Br)c(Cl)c1	x	0.0055
